# YB-1 expression – YB-1 expression inhibition | U2OS, qRT-PCR YB-1 vs CDIP delta delta Cp, 16 h; active compounds read high; zero = DMSO, each unit about twofold | 0.37% of 30,000 active | AID 434959 | delta delta Cp (YB-1 minus CDIP) (test concentration not listed);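 active = delta delta Cp rounded down to an integer at or above 3, about 3 SD of DMSO wells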;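 note: higher means less YB-1 transcript or more CDIP transcript relative to DMSO; stock transfer was 100 nL into about 100 µL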
# PD-1 reverse act – reversal of PD-1 mediated T-cell inhibition | 29,000 tested, under 10 active | activation, % (concentration not given with the values) | primary human CD4 T cells, PD-L1 beads, CellTiter-Glo 96 h;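 active = replicate mean of 50% or more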;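 note: 0% = median vehicle wells and 100% = positive control; 100 nL library stock added to about 50 µL; numbers are from one replicate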
# MITF inh – inhibitors of MITF; TRPM1 promoter luciferase, luminescence, 24 h; inhibition, % (concentration not given with the values); 0.28% of 37,000 active; AID 2240;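 active = most replicates at 85% or more, or half of them and the mean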;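 note: human melanocyte line stably carrying TRPM1 promoter luciferase reporter; 0% = vehicle wells and 100% = a positive control; the first replicate is given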
# Hedgehog inh – Sonic Hedgehog pathway inhibition; Shh-LIGHT2 Gli-luciferase reporter, 30 h; 2.1% of 22,000 active; inhibition, % (test concentration not listed);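 active = replicate mean of 65% or more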;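 note: pathway switched on by Shh-conditioned medium diluted 1 in 25 in low serum; 100 nL library stock added to about 40 µL; 0% = median of neutral wells and 100% = positive control level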
# * = called active by the depositor; nt = not tested or not shown.
SMILES	YB-1 expression	PD-1 reverse act	MITF inh	Hedgehog inh
Cc1noc(C)c1NC(=O)N(C)C[C@H]1Oc2ccc(NS(=O)(=O)c3cn(C)cn3)cc2C(=O)N([C@H](C)CO)C[C@@H]1C	0.21	0.3	3	-47
CCOc1ccccc1OCC(=O)Nc1ccccc1C(=O)O	nt	2.8	-21	nt
COc1ccc(-c2cc(=O)[nH]c(SCC(=O)Nc3ccc(Oc4ccccc4)cc3)n2)cc1	nt	1.2	-7	nt
COc1ccc(CN(C)C[C@H]2OCCCC[C@@H](C)Oc3ccc(NS(=O)(=O)c4cccs4)cc3C(=O)N([C@H](C)CO)C[C@@H]2C)cc1	-0.37	-0.4	-14	nt
N=C(N)SCCc1ccc(OCc2ccc([N+](=O)[O-])cc2)cc1	-0.12	1.7	-14	15
COc1ccc(CN(C)C[C@H]2Oc3ccc(NC(=O)Nc4ccc(C(F)(F)F)cc4)cc3C(=O)N([C@H](C)CO)C[C@@H]2C)cc1	0.1	-4.6	-9	26
C[C@@H]1CN([C@@H](C)CO)C(=O)c2cc(NS(=O)(=O)c3cccs3)ccc2O[C@H]1CN(C)Cc1ccc(Cl)c(Cl)c1	0.41	-1.1	2	nt
CC(NC(=O)/C=C/C(=O)O)C(=O)NC(C(=O)NC(Cc1c[nH]c2ccccc12)C(=O)O)C(C)c1c[nH]c2ccccc12 (configuration not stated)	1.1	0.4	7	-6
CCC(C)Cn1c(CCCO)nc2ccccc21 (configuration not stated)	nt	1.2	-37	nt
COc1ccc(S(=O)(=O)N(C)C[C@H]2Oc3ccc(NC(=O)C4CC4)cc3CC(=O)N([C@H](C)CO)C[C@H]2C)cc1	-0.14	-0.5	-22	-47
Cc1ccc(S(=O)(=O)Nc2ccc3c(c2)CC(=O)N([C@H](C)CO)C[C@@H](C)[C@@H](CN(C)Cc2ccccc2)O3)cc1	0.075	-0.2	-3	-9
CCn1c(SCC(=O)c2cccc([N+](=O)[O-])c2)nnc1-c1ccco1	nt	0.5	7	nt
C[C@@H]1CN([C@H](C)CO)C(=O)Cc2cc(NC(=O)C3CC3)ccc2O[C@@H]1CN(C)C(=O)Nc1cccc2ccccc12	0.34	0.1	0	23
COc1ccccc1NC(=O)C1=C(C)Nc2nc(CCCO)nn2C1c1cccnc1 (configuration not stated)	nt	1.1	-18	nt
COc1ccc(NC(=O)N(C)C[C@@H]2Oc3ccc(NS(=O)(=O)c4c(C)noc4C)cc3CC(=O)N([C@H](C)CO)C[C@H]2C)cc1	0.24	-3.1	2	-17
N#Cc1c(SCC(=O)Nc2ccc(F)cc2Cl)nc2c(c1C(F)(F)F)CCCCC2	nt	0.4	-7	nt
CCOc1ccccc1NC(=O)CSc1nc2ccccc2c(=O)n1-c1cccc(C(F)(F)F)c1	nt	-2.0	11	nt
Nc1nc(CSc2nnnn2-c2ccccc2)nc(N2CCCc3ccccc32)n1	nt	-3.4	39	nt
Cc1ccc(S(=O)(=O)N(C)C[C@@H]2Oc3ccc(NC(=O)Cc4cn(C)c5ccccc45)cc3C(=O)N([C@H](C)CO)C[C@@H]2C)cc1	-0.42	-2.2	31	-17
COc1ccc(S(=O)(=O)Nc2ccc3c(c2)C(=O)N([C@H](C)CO)C[C@@H](C)[C@H](CN(C)Cc2ccc(Cl)c(Cl)c2)O3)cc1	-0.099	0.7	4	nt
CCOC(=O)Cc1c(SC)c2ccccc2n1C	0.31	-0.3	-11	-4
C[C@@H]1CCCCO[C@H](CN(C)S(C)(=O)=O)[C@@H](C)CN([C@H](C)CO)C(=O)c2cc(NS(=O)(=O)c3ccc(Cl)cc3)ccc2O1	-0.043	0.4	-11	nt
CC(C)NC(=O)N(C)C[C@@H]1Oc2c(NS(=O)(=O)c3ccc(F)cc3)cccc2C(=O)N([C@H](C)CO)C[C@@H]1C	0.3	1.4	-7	29
Cc1cc(C)c(C2C(C#N)=C(N)Oc3n[nH]c(C)c32)cc1CN1CCOCC1 (configuration not stated)	nt	-3.1	4	nt
CC(=O)[C@@]1(O)CC[C@H]2[C@@H]3C[C@H](C)C4=CC(=O)C=C[C@]4(C)[C@@]3(F)[C@@H](O)C[C@@]21C	-0.14	nt	-36	67*
Cc1ccc(Cl)cc1NC(=O)CCCN1C(=O)c2ccccc2C1=O	nt	-3.3	-14	nt
COc1ccccc1NC(=O)CN(c1ccc(F)cc1)S(C)(=O)=O	nt	0.1	-13	nt
C[C@H]1CN([C@@H](C)CO)C(=O)c2cccc(NC(=O)CCCCCC(=O)Nc3ccccc3N)c2O[C@H]1CN(C)C(=O)Nc1ccc2c(c1)OCO2	0.13	0.2	8	nt
CC1CCc2c(sc(NC(=O)c3nc4ncccn4n3)c2C(N)=O)C1 (configuration not stated)	nt	3.9	-84	nt
C[C@H](CO)N1C[C@H](C)[C@H](CN(C)S(=O)(=O)c2ccc(Cl)cc2)Oc2ccc(NC(=O)Cn3cnnn3)cc2CC1=O	0.051	0.8	-5	-25
CNC[C@@H]1Oc2c(NS(=O)(=O)c3cccs3)cccc2C(=O)N([C@@H](C)CO)C[C@@H]1C	-0.56	nt	5	-4
Cc1noc(C)c1S(=O)(=O)Nc1cccc2c1O[C@@H](CN(C)CC1CCCCC1)[C@@H](C)CN([C@H](C)CO)C2=O	-0.024	1.8	2	9
Cc1cccc(C(=O)NN(c2ccccc2)c2ccccc2)c1	-0.057	-0.5	3	95*
C[C@@H]1CN([C@@H](C)CO)C(=O)c2cc(NS(=O)(=O)c3ccc(F)cc3)ccc2O[C@@H]1CN(C)C(=O)Nc1ccc2c(c1)OCO2	-0.024	-0.1	-5	-14
O=C(CCn1cnc2ccccc2c1=O)Nc1ccc2c(c1)OCCO2	nt	1.0	-75	nt
CC(C)NC(=O)Nc1ccc2c(c1)CC(=O)N([C@H](C)CO)C[C@@H](C)[C@H](CN(C)C(=O)NC1CCCCC1)O2	-0.23	nt	14	0
C[C@H]1CN([C@@H](C)CO)C(=O)c2cccc(NS(=O)(=O)c3ccc(F)cc3)c2O[C@@H]1CN(C)Cc1ccncc1	-0.028	nt	-4	4
C[C@@H]1CN([C@H](C)CO)C(=O)c2cc(NC(=O)CCCCCC(=O)Nc3ccccc3N)ccc2O[C@@H]1CN(C)Cc1ccccc1	-0.29	0.9	9	nt
COc1ccc(S(=O)(=O)Nc2cccc3c2O[C@H](CN(C)S(=O)(=O)c2c(C)noc2C)[C@@H](C)CN([C@@H](C)CO)C3=O)cc1	-0.2	4.8	-21	8
O=C(CC1NCCNC1=O)Nc1ccc(F)cc1 (configuration not stated)	nt	0.8	-13	nt
Cc1ccc(N(CC(O)Cn2c3ccccc3c3ccccc32)S(C)(=O)=O)cc1 (configuration not stated)	nt	-3.8	31	nt
C/C=C1/[C@H](O[C@@H]2O[C@H](CO)[C@@H](O)[C@H](O)[C@H]2O)OC=C(C(=O)OC)[C@H]1CC(=O)OCCc1ccc(O)c(O)c1	0.076	nt	nt	-28
Cc1cc(C(=O)NCc2nc(-c3ccccc3)no2)ccc1[N+](=O)[O-]	nt	-0.2	-4	nt
C[C@@H]1CCCCO[C@H](CN(C)S(=O)(=O)c2cccs2)[C@@H](C)CN([C@H](C)CO)C(=O)c2cc(NC(=O)c3ccccc3)ccc2O1	-0.003	-0.2	0	3
C[C@@H]1CCCCO[C@@H](CN(C)C(=O)Nc2cccc3ccccc23)[C@@H](C)CN([C@H](C)CO)C(=O)c2cc(NC(=O)Nc3ccc4c(c3)OCO4)ccc2O1	-0.32	nt	-1	-24
COc1ccc(NC(=O)N(C)C[C@H]2Oc3ccc(NS(=O)(=O)c4ccc(F)cc4)cc3C(=O)N([C@@H](C)CO)C[C@H]2C)cc1	0.06	-1.6	-1	nt
C[C@@H]1CN([C@H](C)CO)C(=O)Cc2cc(NS(=O)(=O)c3cccs3)ccc2O[C@H]1CN(C)Cc1ccc(Oc2ccccc2)cc1	-0.17	nt	32	45
Cc1ccc(S(=O)(=O)N2C(=O)CCC2C(=O)Nc2ccccc2-c2ccccc2)cc1 (configuration not stated)	nt	3.6	-7	nt
Cc1nnc(SCC(=O)Nc2cccc(Cl)c2Cl)s1	nt	-0.2	-14	nt
CNC[C@H]1Oc2ccc(NC(=O)c3ccncc3)cc2C(=O)N([C@@H](C)CO)C[C@@H]1C	0.49	1.2	-8	nt

# New compounds follow.
SMILES	YB-1 expression	PD-1 reverse act	MITF inh	Hedgehog inh
C[C@H](CO)N1C[C@H](C)[C@@H](CN(C)Cc2ccc(-c3ccccc3)cc2)Oc2c(NC(=O)CCCCCC(=O)Nc3ccccc3N)cccc2C1=O	-0.2	-1.9	28	nt
O=C(CSc1nc(-c2ccccc2)c(-c2ccccc2)[nH]1)Nc1ccccc1Cl	nt	0.1	16	nt
COc1ccc(-c2nc3ccccc3s2)cc1	-0.054	0.0	70	-36
O=C(CSc1n[nH]c(-c2ccc(Cl)cc2)n1)c1ccc(Br)cc1	nt	-2.9	1	nt
C[C@H]1CN([C@@H](C)CO)C(=O)c2cc(NC(=O)Cn3cnnn3)ccc2O[C@@H]1CN(C)C(=O)Nc1cccc2ccccc12	-0.079	0.1	-3	-10
C[C@@H]1CN([C@@H](C)CO)C(=O)Cc2cc(NC(=O)Nc3ccc(F)cc3)ccc2O[C@@H]1CN(C)Cc1ccc(C(=O)Nc2ccccc2N)cc1	0.021	1.5	10	nt
O=C1/C(=C/c2ccc(-c3nn[nH]n3)cc2)C(c2ccccc2)Oc2ccccc21 (configuration not stated)	0.065	-9.4	11	74*
COc1ccc(NC(=O)N(C)C[C@@H]2Oc3ccc(NS(=O)(=O)c4ccccc4)cc3C(=O)N([C@@H](C)CO)C[C@H]2C)cc1	-0.12	1.4	-7	nt
C[C@H](CO)N1C[C@H](C)[C@H](CN(C)S(=O)(=O)c2ccccc2)Oc2ccc(NS(=O)(=O)c3ccc(F)cc3)cc2C1=O	-0.054	-4.0	-8	35
Cc1noc(C)c1S(=O)(=O)N(C)C[C@@H]1Oc2c(NS(=O)(=O)c3ccc(F)cc3)cccc2C(=O)N([C@H](C)CO)C[C@@H]1C	0.0048	-0.3	-6	-14
COC(=O)C1=C(C)NC(=O)C1(NS(=O)(=O)c1ccc(C)cc1)C(F)(F)F (configuration not stated)	nt	-0.2	-18	nt
CCc1ccc(OCC(=O)Nc2cccnc2)c(Br)c1	nt	1.1	-23	nt
Cc1cccc(C)c1NC(=O)CN1CCN(CCCC(c2ccc(F)cc2)c2ccc(F)cc2)CC1	0.4	nt	-9	-13
C[C@@H]1CCCCO[C@@H](CN(C)S(=O)(=O)c2ccc(Cl)cc2)[C@@H](C)CN([C@H](C)CO)C(=O)c2cc(NC(=O)Cc3ccccc3)ccc2O1	0.058	-2.0	18	29
COc1cc2c(ccc3cc(OC)c(OC)c(O)c32)cc1O	0.075	-0.1	-4	-8
Cc1ccc(NC(=O)COc2ccc(Cl)c(C)c2)c([N+](=O)[O-])c1	nt	1.9	-84	nt
C[C@H](CO)N1C[C@H](C)[C@H](CN(C)S(=O)(=O)c2cn(C)cn2)Oc2c(NC(=O)C3CCOCC3)cccc2C1=O	0.091	1.6	2	2
Cc1nc(SCC(=O)c2ccc3c(c2)OCCO3)c2c3c(sc2n1)CCC3	nt	-2.0	-15	nt
Nc1nc(SCC(=O)Nc2ccccc2C(F)(F)F)[nH]c(=O)c1-c1ccccc1	nt	0.4	1	nt
CCc1cccc2c3c([nH]c12)C(CC)(CC(=O)O)OCC3 (configuration not stated)	-0.081	nt	14	-16

# Given with each value named: entries from further up.
> Cc1ccc(S(=O)(=O)N(C)C[C@@H]2Oc3ccc(NC(=O)Cc4cn(C)c5ccccc45)cc3C(=O)N([C@H](C)CO)C[C@@H]2C)cc1
  YB-1 expression: -0.42 | PD-1 reverse act: -2.2 | MITF inh: 31 | Hedgehog inh: -17

> Cc1ccc(Cl)cc1NC(=O)CCCN1C(=O)c2ccccc2C1=O
  YB-1 expression: nt | PD-1 reverse act: -3.3 | MITF inh: -14 | Hedgehog inh: nt

> C[C@H](CO)N1C[C@H](C)[C@@H](CN(C)Cc2ccc(-c3ccccc3)cc2)Oc2c(NC(=O)CCCCCC(=O)Nc3ccccc3N)cccc2C1=O
  YB-1 expression: -0.2 | PD-1 reverse act: -1.9 | MITF inh: 28 | Hedgehog inh: nt

> Cc1noc(C)c1S(=O)(=O)N(C)C[C@@H]1Oc2c(NS(=O)(=O)c3ccc(F)cc3)cccc2C(=O)N([C@H](C)CO)C[C@@H]1C
  YB-1 expression: 0.0048 | PD-1 reverse act: -0.3 | MITF inh: -6 | Hedgehog inh: -14

# Carrying on.
SMILES	YB-1 expression	PD-1 reverse act	MITF inh	Hedgehog inh
C[C@H]1CN([C@@H](C)CO)C(=O)c2cccc(NC(=O)Nc3cccc4ccccc34)c2O[C@H]1CN(C)S(=O)(=O)c1cccs1	0.059	-2.4	-9	32
COc1ccc(C(C)C)cc1S(=O)(=O)NCCN1CCOCC1	nt	2.1	-15	nt
C[C@H](CO)N1C[C@H](C)[C@@H](CN(C)Cc2ccc3c(c2)OCO3)Oc2ccc(NC(=O)CCC(F)(F)F)cc2C1=O	0.085	-0.4	3	nt
COc1ccc(NC(=O)N(C)C[C@@H]2Oc3ccc(NC(=O)C4CCCCC4)cc3C(=O)N([C@@H](C)CO)C[C@H]2C)cc1	-0.35	-1.2	-3	-27
CCOC(=O)/N=C(/c1ccc(Cl)cc1)c1cc2ccccc2cn1	-0.1	0.2	-6	-107
C[C@@H]1CN([C@@H](C)CO)C(=O)Cc2cc(N(C)C)ccc2O[C@@H]1CN(C)C(=O)Nc1ccc2c(c1)OCO2	-0.085	3.1	10	12

# Screening results (PubChem)

# Only part of the results is shown; count on the stated rates, not on these rows.
